PABP polyA inh: PABP-poly(A) binding inhibition. P11940. PABP-poly(A) RNA binding, fluorescence polarization. inhibition, % at 35 µM. 290,000 compounds, 1% hits;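 active = 50% or more with normal probe brightness, or confirmed in later tests; inconclusive = above 50% with abnormal brightness, or retests that disagree; inactive = below 50% or failed in later tests; about a fifth of its hits are not listed in these tables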;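 note: calls also rest on retests at 20 µM and on dose response follow-up; controls were probe without protein and protein plus probe with vehicle; some compounds called inactive have numbers as strong as hits; many hits fall short of the cut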
Target sequence (P11940 whole entry, looked up): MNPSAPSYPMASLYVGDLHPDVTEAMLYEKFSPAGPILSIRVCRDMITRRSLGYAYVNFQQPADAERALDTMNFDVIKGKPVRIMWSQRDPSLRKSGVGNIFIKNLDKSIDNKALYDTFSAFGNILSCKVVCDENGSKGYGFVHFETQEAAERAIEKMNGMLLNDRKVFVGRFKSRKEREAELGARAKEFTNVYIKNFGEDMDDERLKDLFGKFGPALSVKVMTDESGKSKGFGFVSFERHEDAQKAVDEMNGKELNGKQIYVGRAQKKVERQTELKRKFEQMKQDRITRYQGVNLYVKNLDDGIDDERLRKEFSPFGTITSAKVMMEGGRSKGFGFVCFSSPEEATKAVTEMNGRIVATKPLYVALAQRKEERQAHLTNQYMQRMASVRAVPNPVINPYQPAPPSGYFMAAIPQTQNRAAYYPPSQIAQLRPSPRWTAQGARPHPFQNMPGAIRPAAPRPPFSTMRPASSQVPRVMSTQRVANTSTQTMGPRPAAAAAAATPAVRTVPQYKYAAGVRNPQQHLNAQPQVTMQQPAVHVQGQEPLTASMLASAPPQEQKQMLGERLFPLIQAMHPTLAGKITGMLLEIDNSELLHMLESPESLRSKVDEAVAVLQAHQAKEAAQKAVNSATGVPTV
Yeast UUG start: alters start codon recognition fidelity in yeast; S. cerevisiae UUG-firefly luciferase reporter, luminescence/redox ratio; activity score, % at 18.7 µM; 350,000 compounds, 0.13% hits;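 active = replicate mean at a twofold rise or more, about +100% in these data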;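 note: firefly luciferase made from a UUG start codon reports start codon fidelity; reporter light over untreated wells divided by growth signal over untreated wells; some hits fall short of that in this replicate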
HIV Env fusion: blocks HIV Env-driven cell-cell fusion. HeLa-JRFL Env/CEM21 cell fusion, luciferase. inhibition, % at 12.3 µM. 360,000 compounds, 1.1% hits;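 active = mean replicate inhibition score of at least 50 and every replicate individually at or above 50; inconclusive = only one of the two criteria met; inactive = mean below 50 and not all replicates reaching 50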;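 note: 0% = plate neutral controls and 100% = maraviroc near 300 nM; one replicate is shown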
MT1-MMP act inh: inhibitors of human MT1-MMP activation; HT1080 RFP-PRO-GFP cells, GFP/RFP ratio fluorescence, overnight; percent of plate control window, DMSO zero; GFP/RFP ratio change, % at 20 µM; P50281; 360,000 compounds, 0.061% hits;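 active = GFP/RFP ratio change of at least 30% with cell ATP level not reduced by more than half and red fluorescence within 50% of control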; note: strong numbers were not always called active
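Read-out: GFP/RFP fluorescence ratio; Test system: RFP-PRO-GFP reporter HT1080 cells; Compound dosing: single-point 20 µM compound, 1% DMSO; Times: overnight compound exposure at 37 °C.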
CSC inhib: cancer stem cell inhibition. 300,000 compounds, 1.1% hits. inhibition, % at 7.5 µM. cancer stem cell-like cells viability, luminescence;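 active = mean at 75% or more and at least half the replicates too; inconclusive = mean and replicates disagree; tested in HMLE shEcad cells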;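 note: 0% = median of negative and 100% = median of positive control wells; the first replicate is given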
Rce1 inhib: yeast Ras-converting enzyme inhibition | yeast membranes, quenched prenylated peptide cleavage fluorescence | calls only | 290,000 compounds, 0.27% hits;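 active = fall in fluorescence gain of 50% or more versus controls, with final raw signal at or below 3038400; inconclusive = same 50% fall but final raw signal above 3038400; inactive = fall in fluorescence gain under 50%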;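 note: plate controls were neutral control wells for no effect and wells lacking membranes for full effect; tested at 10 µM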
eIF4H FP inh: inhibitors of RNA binding by human eIF4H; eIF4H fluorescence polarization binding assay; inhibition, % at 35 µM; 290,000 compounds, 0.94% hits; AID 2012;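 active = 50% or more with normal probe brightness, or confirmed in later tests; inconclusive = above 50% with abnormal brightness, or retests that disagree; inactive = below 50% or failed in later tests; about a fifth of its hits are not listed in these tables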;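 note: calls also rest on retests at 20 µM and on dose response follow-up; 0% = protein and probe with vehicle and 100% = probe without protein; strong numbers were not always called active; many hits fall short of the cut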
MT1-MMP act inh RFP: further read-out of MT1-MMP act inh, marked with its call; RFP signal change, %; measured here: RFP expression control read;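 0 = vehicle wells; hits needed this value within 50% of zero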
The depositor's hits bear a star; i = inactive; ? = inconclusive; . = no result given; & = joins results of further samples.

Every second line gives: PABP polyA inh, Yeast UUG start, HIV Env fusion, MT1-MMP act inh, MT1-MMP act inh RFP, CSC inhib, Rce1 inhib, eIF4H FP inh
CCn1c(COc2ccccc2)nc2ccccc21
  1, -18, ., 2, -1, -3, i, 10
CCc1nn2c(=O)c(S(=O)(=O)Nc3cccc(F)c3)c(C)nc2s1
  1, 5, -1, 3, 4, 9, i, 2
O=C1CCC[C@@H]2CC(N3CCCCC3)C[C@@H]3CCN1[C@H]23 (stereo partly specified)
  ., 0, 36, 0, 6, ., ., .
C[C@@]12C(=O)N(Cc3ccc(-c4ccccc4)cc3)CC(=O)N1[C@H](/C=C/c1ccccc1)[C@@H]1C(=O)N(c3ccccc3)C(=O)[C@@H]12
  -23, -11, 2, 6, 2, 27, i, -7
COc1ccccc1N1CCN(C(c2ccccn2)c2nnnn2C2CCCCC2)CC1 (stereo unspecified)
  -2, -13, -66, 1, 1, -8, i, 1
COc1ccc(N2CCN(c3nc(Cl)nc(Nc4ccc(F)cc4)n3)CC2)cc1
  3, ., -23, 3, 0, -1, i, -6
CCC(C)NC(=O)c1ccc(C(=O)c2ccccc2)cc1 (stereo unspecified)
  3, -2, 0, 1, 2, ., i, 1
COC(=O)C[C@H]1C[C@@H]2c3cc(NC(=O)Nc4ccc(F)cc4)ccc3O[C@@H]2[C@@H](CO)O1
  ., 0&-10, -1, 2, 7, ., ., .
Cn1cc(Cl)c(C(=O)NC2CCCCCC2)n1
  -5, -16, -20, 4, 1, -4, i, -8
COc1cccc2sc3cc(C#Cc4ccccn4)ccc3c(=O)c12
  ., 4, -25, 2, 4, 30, ., .
Cc1cc(C)c2nc(SCCC#N)nc(C)c2c1
  -13, 0, ., -2, 0, -9, i, -5
Cc1cc(NC(=O)CCC(=O)N(Cc2ccco2)C2(C(=O)NC3CCCC3)CCC(C)CC2)no1 (stereo unspecified)
  -6, 10, 7, -3, 2, ., i, 6
COC(=O)C1=C(C)N(Cc2cccnc2)C(=O)/C1=C\c1cccs1
  5, ., 1, ., ., ., i, 9
CCCOc1ccc(N2C(=O)CC(N3CCC(c4nc5ccccc5o4)CC3)C2=O)cc1 (stereo unspecified)
  ?, ., ., ., ., -1, i, -6
CCc1c(C)nc(SC/C=C/c2ccccc2)[nH]c1=O
  6, -4, ., 5, -6, 0, i, -12
CCC(=O)N(C1=C(NC)C(=O)c2ccccc2C1=O)C(C)C
  1, ., 6, -11, -12, -3, i, 6
CC(=O)N1CCc2ccc(S(=O)(=O)Nc3ccccc3Cl)cc21
  -4, -10, -3, 3, -5, 0, i, 1
Cc1ccc(NC(=O)c2ccccc2OCc2ccc([N+](=O)[O-])cc2)nc1
  -8, ., -7, -4, -2, 16, i, -4
COc1cc(OC)cc(-c2c(-c3cccs3)c3cc(-c4ccc(OC)nc4)ccc3n2C)c1
  ., -20, ?, -5, -3, 30, ., .
COc1ccc(C(=O)C2=NN(C(C)=O)CC2c2ccco2)cc1 (stereo unspecified)
  4, ., -13, 3, 1, 5, ., 5
CC1CCc2c(C(=O)Nc3ccc(OC(F)(F)F)cc3)csc2C1 (stereo unspecified)
  6, ., -14, -5, -2, 38, i, 6
NC(=O)/C(=N\OC(=O)c1ccco1)c1nc(-c2ccc(Br)cc2)cs1
  3, -11, ., -4, -2, ., i, 9
Cc1[nH]c2ccc(C(=O)NCCCN3CCCCC3)cc2c1C
  12, -13, -5, 3, 7, -2, i, -5
CCOc1ccc(OCC(=O)OCc2cc(=O)n3cc(Br)ccc3n2)cc1
  ., 6, 21, 1, 3, -7, ., .
O/N=C/c1cc(Br)cs1
  -6, ., 5, -2, -2, -9, i, -9
COc1ccc(S(=O)(=O)N(C)C)cc1NC(=O)CCNC(=O)c1ccccc1OC
  8, 10, 10, 5, 7, 1, i, -7
COc1ccc(CC(=O)Nc2cccc(-c3nnc(-c4ccco4)o3)c2)cc1
  -6, -6, ., 3, -7, 19, i, -6
COc1ccc(OCC(=O)c2c[nH]c3ccccc23)cc1
  1, ., 18, 2, 0, -18, i, 6
COC(=O)c1ccccc1NC(=O)NC1CCCC1
  2, ., 13, -1, 4, -9, i, 5
O=C(COC(=O)CCN1C(=O)C2CC=CCC2C1=O)Nc1ccc([N+](=O)[O-])cc1 (stereo unspecified)
  ., -8, ., -2, 4, -5, ., .
CCn1c(SCC(=O)OC)nnc1-c1ccncc1
  -5, -17, -5, 5, 7, 10, i, -6
FC(F)(F)c1cc(-c2ccccc2)nc(NCC2CCCO2)n1 (stereo unspecified)
  -2, -5, 11, -1, 3, 5, i, -4
CC(=O)Nc1ccc(NC(=O)c2c(-c3ccccc3Cl)noc2C)cc1
  -1, ., 31, 0, 2, -11, i, -3
CCN(c1cc(C)cc(C)c1)S(=O)(=O)c1nnc(NC(=O)C(C)(C)C)s1
  8, -11, 11, -3, -5, 4, i, 2
COc1ccccc1Nc1nc(-c2ccc([N+](=O)[O-])cc2)nc2ccccc12
  ., -11, ., 4, -3, 7, i, .
Cc1nn(-c2ccccc2)c2c1C(=O)NC(=O)C(C)(C)C2
  6, -5, ., 1, 1, -11, i, 8
NC(=S)c1cc2ccc(O)cc2oc1=O
  26, ., ., -16, -1, ., i, 29
O=[N+]([O-])c1cccc(C=Nc2cc3c(cc2Br)OCCO3)c1
  -13, ., 7, 0, 4, 1, ., -2
CCOC(=O)N1CCN(c2cc(N3CCN(CC)CC3)c(F)cc2[N+](=O)[O-])CC1C (stereo unspecified)
  1, 15, -10, 10, -9, 58, i, 2
Cc1cccc(-n2ncc3c2CCCC3NC(=O)Cc2c(C)noc2C)c1C (stereo unspecified)
  6, -10, 31, -1, -27, -6, i, 4
CCn1c(=O)cc(SCC(=O)Nc2cccnc2)c2ccccc21
  0, -13, -34, 12, 5, ., i, 1
COc1nc(N2CCCC2)nc(-n2nnc(C(C)=O)c2C)n1
  4, ., -9, 3, 3, 3, i, 3
COc1ccc(C(=O)N2CCOC2CNC(=O)C(=O)NCc2ccccn2)cc1 (stereo unspecified)
  ., -10, -14, -1, -1, ., ., .
OC1CCN(c2c3c(nc4cc(-c5cccc(F)c5)nn24)CCCC3)CC1
  1, -22, ., 5, -10, ., i, -5
CO[C@@H]1[C@@H](OC(N)=O)[C@@H](O)C(Oc2ccc3c(O)c(NC(=O)c4ccc(O)c(CC=C(C)C)c4)c(=O)oc3c2C)OC1(C)C (stereo partly specified)
  ., -3, 5, -3, -2, -16, ., .
O=C(Cc1ccccc1)NCCC1=CCCCC1
  -4, ., 1, 3, 8, -12, ., 6
Cc1cc(NC(=O)CSc2nnnn2-c2ccc(C)c(C)c2)no1
  10, ., -1, -2, -5, -5, i, -6
O=C(CCCCCNC(=O)N1CCn2c1nc1ccccc12)N[C@@H](C(=O)O)c1ccccc1
  2, -19, ., 3, -1, -4, i, -12
CC(C)(C)OC(=O)COc1cc(F)ccc1[N+](=O)[O-]
  ., -17, 6, 1, -3, -13, ., .
COc1ccc(Nc2nc(-c3ccccc3)c3ccccc3n2)cc1
  20, ., -8, -1, 1, ?, i, -4
CCN(CC(=O)Nc1c(F)cccc1F)C(=O)/C=C/c1ccc(S(=O)(=O)N2CCCCCC2)cc1
  ., ., 7, -4, -16, 5, i, .
Cc1ccc(-n2nc3cc(C)c(NC(=O)c4cccnc4)cc3n2)cc1
  8, ., ., 1, 2, -17, i, -4
CC(=O)c1cc(C#N)c(SCC(=O)OC(C)(C)C)nc1C
  -5, -9, ., 8, 2, 23, i, -12
O=C(COc1ccc(/C=N/NC(=O)c2ccccc2O)cc1)Nc1ccc([N+](=O)[O-])cc1
  -12, -2, ., 4, 7, 1, i, -35
CCOC(=O)c1c(S(=O)(=O)N2CCCC2)c(C)n(C)c1C
  -8, ., 0, 3, 2, 0, i, -6
CC(C)(C)c1ccc(C(CC(=O)O)NC(=O)CSc2ccccc2)cc1 (stereo unspecified)
  -1, -4, 20, -2, 1, 4, i, 0
CC(=O)N1CCN(c2ccc(NC(=O)c3cccc(Cl)c3)cc2)CC1
  6, -15, -41, 2, -4, -9, ., 7
C#CCOc1c(Cl)cc(C2C3=C(CCCC3=O)N(CC(=O)O)C3=C2C(=O)CCC3)cc1OC
  8, -17, 6, -1, 1, 0, i, 13
O=C(COC(=O)c1nsc(Cl)c1Cl)NC1CCCC1
  -10, 0, 13, 4, 7, 20, i, -4
CCOC(=O)C(C)(C)N(Cc1ccccc1C)S(=O)(=O)c1ccc(Cl)c([N+](=O)[O-])c1
  2, -5, 6, -5, -7, 5, i, 5

Additional entries.
Every second line gives: PABP polyA inh, Yeast UUG start, HIV Env fusion, MT1-MMP act inh, MT1-MMP act inh RFP, CSC inhib, Rce1 inhib, eIF4H FP inh
CCN(CC(=O)NCc1cccs1)C(=O)c1ccc(NS(=O)(=O)c2cccc([N+](=O)[O-])c2)cc1
  ., -7, 17, -4, 2, -7, i, .
O=C(c1cccc(OC(F)F)c1)N1CCN(c2ncccn2)CC1
  -6, -8, ., 6, 8, -4, i, 6
CCOC(=O)c1nn(-c2ccc(F)cc2)c(=O)cc1OCC(=O)Nc1ccc(OCC)cc1
  ., -14, ., 1, 3, 13, i, .
CN(C)CC#Cc1cncc(C(=O)NNC(=O)Nc2ccc(Cl)cc2)c1
  0, -7, 8, -2, -1, 6, i, -5
Cc1csc(=Nc2ccc(S(=O)(=O)N3CCOCC3)cc2)n1Cc1ccco1
  8, 14&-3, 17, -2&-1, -7&-14, -1, i, 2
COc1cc(O)c(CCO)c2c1C(=O)C[C@@H](C)O2
  9, -12, ., -2, 3, -6, i, 10
C/C(=N\Nc1nc(N2CCCCC2)nc(N2CCOCC2)n1)c1cccs1
  1, ., -16, 2, -5, -8, i, 6
COc1ccc(N2CCN(C(=O)Cn3cnc4c(cnn4-c4ccc(C)cc4)c3=O)CC2)cc1
  -18, 3, 1, 2, 3, -28, i, 1
O=C(Cc1ccc(Cl)cc1)NCC(=O)N1CCC2(CC1)NCCc1[nH]cnc12
  ., 11, 32, 11, 3, ., ., .
Cc1ccccc1NC(=O)CSc1nnc(NC(=O)C2CC2)s1
  6, -12, -18, 2, 3, -10, ., 6
CCc1cccc2c(C(=O)C(F)(F)F)cn(CC(=O)NCC3CCCO3)c12 (stereo unspecified)
  -8, ., -19, -1, 2, 0, ., -4
COc1cc(C)nc(NS(=O)(=O)c2ccccc2)n1
  5, 22, ., 0, 1, -9, i, 2
COCCCNC(=O)C1CCCN(C(=O)Nc2ccc(OC)cc2)C1 (stereo unspecified)
  -7, -25, 9, -1, 7, 13, i, -11
CCCCn1c(=O)[nH]c(=O)c2c1nc(-c1ccc(OCC)cc1)n2CC
  5, -14, -6, 2, -2, -7, i, 2
C=CCSc1nnc(Cc2c(C)[nH]c3ccccc23)o1
  -4, -8, 18, -1, 1, -13, i, 4
CC(C)C(C(=O)Nc1cccnc1)N1C(=O)c2ccccc2C1=O (stereo unspecified)
  6, -18, 10, -2, 6, -8, i, 3
CC(=O)Nc1cccc(NC(=O)CSc2nc3c(=O)n(C)c(=O)n(C)c3n2C)c1
  ., ., -1, -4, 0, 0, i, .
O=C(Nc1ccc(F)c(Cl)c1)C1CC2CCC1C2 (stereo unspecified)
  ., 1, 12, -5, -10, ., i, .
COc1ccc(C(=O)Nc2nc3ccc(OC)cc3s2)cc1
  -2, 6, -82, 16, -9, -3, i, -8
N/C(=N\OCc1ccc([N+](=O)[O-])cc1)c1ccccn1
  5, ., ., ., ., -10, ., 3
CC1CCC2C(=O)N(c3cc(Cl)ccc3OC(=O)c3ccco3)C(=O)C2C1 (stereo unspecified)
  -2, -5, 19, 0, 4, ., i, -12
CCOC(=O)c1c(NC(=O)C(Sc2ccccc2)c2ccccc2)sc(C(N)=O)c1C (stereo unspecified)
  2, -8, ?, -23, -17, 19, i, -10
Brc1ccc(-c2ccc(CNCc3ccccn3)o2)cc1
  7, -18, -357, -1, -5, 6, i, 2

Bioassay records as filed in PubChem.

An excerpt; rates above refer to the full screens.
